NOMO-1 viab = STK33 inhibitor candidate reducing NOMO-1 cell viability | NOMO-1 AML viability, CellTiter-Glo luminescence, 72 h | inhibition, % (concentration not given with the values) | actives 7.5% (n = 37,000) | AID 2330;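 active = most replicates above 80%; inconclusive = exactly half above 80%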;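 note: wells of about 30 µL received 25 nL stock; 0% = median of vehicle wells and 100% = reference inhibitor level; the first replicate is given; inactives centre near 10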
An asterisk follows results filed as active; ? = inconclusive. A portion of the library. The share of hits here may be higher or lower than overall.

SMILES | NOMO-1 viab
C[C@@H]1CN([C@H](C)CO)C(=O)Cc2cc(NC(=O)Cn3cnnn3)ccc2O[C@H]1CN(C)C(=O)Nc1ccc(C(F)(F)F)cc1 | 5.0
C[C@@H]1CCCCO[C@H](CN(C)C(=O)c2ccncc2)[C@@H](C)CN([C@H](C)CO)C(=O)c2cc(NC(=O)CCCCCC(=O)Nc3ccccc3N)ccc2O1 | 3.3
CSc1nsc(SC)c1NC(=O)OCCc1ccccn1 | 13.5
C=C(C)CC1C(=O)NN=C1C (configuration not stated) | -5.3
C[C@H](CO)N1C[C@H](C)[C@H](CN(C)C)Oc2c(NC(=O)C3CCOCC3)cccc2C1=O | -4.3
C[C@H](CO)N1C[C@H](C)[C@H](CN(C)S(=O)(=O)c2ccccc2)Oc2ccc(NC(=O)c3ccncc3)cc2C1=O | -1.0
CNC(=O)c1cnc2cc(Cl)ccc2c1OC | 5.4
O/N=C(\Cn1cncn1)c1ccc(Cl)cc1Cl | 19.6
C[C@@H]1CCCCO[C@@H](CN(C)Cc2ccc(C(=O)Nc3ccccc3N)cc2)[C@@H](C)CN([C@H](C)CO)C(=O)c2cc(NC(=O)NC3CCCCC3)ccc2O1 | 65.6
COc1ccc(CN(C)C[C@H]2Oc3c(NC(=O)NC4CCCCC4)cccc3C(=O)N([C@@H](C)CO)C[C@@H]2C)cc1 | 48.8
C[C@@H]1CN([C@@H](C)CO)C(=O)c2cccc(NS(C)(=O)=O)c2O[C@H]1CN(C)S(=O)(=O)c1ccc(F)cc1 | 4.5
COc1cc(C)c2c(=O)c3c(O)cc(O)cc3oc2c1 | 2.8
C[C@@H]1CCCCO[C@H](CN(C)Cc2ccc(C(F)(F)F)cc2)[C@@H](C)CN([C@H](C)CO)C(=O)c2cc(NS(=O)(=O)c3cccs3)ccc2O1 | 76.9
C[C@@H]1CN([C@@H](C)CO)C(=O)c2cc(NC(=O)Cc3ccccc3)ccc2O[C@@H]1CN(C)Cc1ccc(Cl)c(Cl)c1 | 60.0
Cc1cc(-c2ccccc2)nc2c1/C(=N\O)CC(C)(C)C2 | 101.0*
C[C@H](CO)N1C[C@H](C)[C@H](CN(C)Cc2ccc(Cl)c(Cl)c2)Oc2ccc(NC(=O)NC3CCCCC3)cc2C1=O | 16.1
COc1ccc(NC(=O)Nc2ccc3c(c2)CC(=O)N([C@H](C)CO)C[C@@H](C)[C@@H](CN(C)Cc2ccc(Oc4ccccc4)cc2)O3)cc1 | ?
CC(=O)c1ccc(NC(=O)CSc2nnc3n(-c4ccccc4)c(=O)c4c5c(sc4n23)COC(C)(C)C5)cc1 | -27.6
COc1ccc(OC)c(C2C(C(=O)c3ccco3)C(=O)C(=O)N2Cc2cccnc2)c1 (configuration not stated) | 38.5
COC(=O)COc1c(Br)cc(C2C3=C(CCCC3=O)NC3=C2C(=O)CCC3)cc1OC | 3.3
O=C(COc1ccccc1[N+](=O)[O-])Nc1cc(-c2nc3ccccc3o2)ccc1Cl | -20.3
COc1cc(CC(C)C(C)Cc2ccc(O)c(OC)c2)ccc1O (configuration not stated) | 121.2*
COc1ccc(CN(C)C[C@H]2Oc3ccc(NC(=O)Nc4ccc(C(F)(F)F)cc4)cc3C(=O)N([C@H](C)CO)C[C@H]2C)cc1 | 129.1*
CCOC(=O)c1c(N)sc2c1CCC(Sc1ccccc1)C2=O (configuration not stated) | 26.0
COc1ccc(CCNc2ncnc3sc4c(c23)CCCC4)cc1 | ?
COc1cc(/C=C/c2ccc(OC)c(OC)c2)c(CC=C(C)C)c(OC)c1 | 19.2
O=C(CSc1nnc(-c2cccc3ccccc23)o1)Nc1cccc(F)c1 | -9.8
O=c1c2ccccc2nc(SCc2ccc(F)cc2)n1-c1ccccc1 | 38.0
C[C@@H]1CCCCO[C@H](CN(C)C(=O)Nc2ccc3c(c2)OCO3)[C@@H](C)CN([C@H](C)CO)C(=O)c2cc(NC(=O)c3ccncc3)ccc2O1 | 19.4
C[C@@H]1CN([C@H](C)CO)C(=O)c2cc(NS(=O)(=O)c3cn(C)cn3)ccc2O[C@H]1CN(C)C(=O)Nc1ccc(F)cc1 | 17.7
CC(C)NC(=O)Nc1ccc2c(c1)C(=O)N([C@@H](C)CO)C[C@H](C)[C@@H](CN(C)S(=O)(=O)c1cccs1)O2 | -4.1
C[C@@H]1CN([C@@H](C)CO)C(=O)c2cccc(NS(=O)(=O)c3ccccc3)c2O[C@H]1CN(C)C(=O)Nc1ccc2c(c1)OCO2 | -0.9
CC1=CCC(C(=O)O)C(C(=O)Nc2ccc(OC(F)(F)F)cc2)C1 (configuration not stated) | 3.3
Cc1ccc2[nH]c(C)c(CCC(=O)O)c(=O)c2c1 | -10.3
Cc1ccc(S(=O)(=O)Nc2ccc3c(c2)C(=O)N([C@H](C)CO)C[C@H](C)[C@@H](CN(C)Cc2ccc(Oc4ccccc4)cc2)O3)cc1 | 5.6
CCCc1cc(=O)[nH]c(SCC(=O)Nc2cccc(F)c2)n1 | -1.2
C[C@H](CO)N1C[C@H](C)[C@H](CN(C)C(=O)NC2CCCCC2)Oc2ccc(NS(=O)(=O)c3ccc(Cl)cc3)cc2C1=O | 23.5
C[C@@H]1CCCCO[C@@H](CN(C)S(=O)(=O)c2ccccc2)[C@@H](C)CN([C@H](C)CO)C(=O)c2cc(NC(=O)CCCN(C)C)ccc2O1 | 7.6
C[C@@H]1CN([C@H](C)CO)C(=O)c2cccc(NC(=O)c3ccc(-c4nccs4)cc3)c2O[C@@H]1CN(C)Cc1ccc(Oc2ccccc2)cc1 | 88.6*
Cc1ccccc1N(CC(=O)Nc1cccc(Cl)c1Cl)S(C)(=O)=O | 5.1
CC(=O)OC1CCC(C)(O)C2OC(CC1(C)O)C(C(C)C)C2OC(=O)/C=C/c1ccccc1 (configuration not stated) | 24.7
COc1cc(NC(=O)COc2cccc(C)c2)c(OC)cc1Cl | 1.2
C[C@H]1CN([C@@H](C)CO)C(=O)c2cccc(NC(=O)Nc3ccc(C(F)(F)F)cc3)c2O[C@H]1CN(C)S(=O)(=O)c1cccs1 | 90.5*
Cc1c(Cl)cccc1NC(=O)CN(c1ccc(I)cc1)S(C)(=O)=O | 15.3
Cc1ccc(-c2nnc(-n3cnc4cc(C)c(C)cc43)c3ccccc23)cc1 | 41.9
O=C(CSc1nc2cc(Cl)ccc2o1)c1cccc([N+](=O)[O-])c1 | -3.0
COc1ccccc1NC(=O)CN(c1ccccc1OC)S(C)(=O)=O | -11.9
COc1ccc(S(=O)(=O)N(C)C[C@H]2Oc3ccc(NS(=O)(=O)c4ccc(Cl)cc4)cc3C(=O)N([C@@H](C)CO)C[C@@H]2C)cc1 | 16.7
C[C@H]1CN([C@@H](C)CO)C(=O)Cc2cc(NC(=O)NC3CCCCC3)ccc2O[C@@H]1CN(C)S(=O)(=O)c1ccc(Cl)cc1 | -16.5
C[C@@H]1CN([C@@H](C)CO)C(=O)c2cc(NC(=O)Nc3ccc4c(c3)OCO4)ccc2O[C@@H]1CN(C)C(=O)Nc1cccc2ccccc12 | 59.2
Remaining list, next part
SMILES | NOMO-1 viab
CNC[C@H]1Oc2ccc(NS(=O)(=O)c3ccc(OC)cc3)cc2CC(=O)N([C@@H](C)CO)C[C@H]1C | 5.1
O=C(CSc1nc2ccccc2[nH]1)Nc1ccc(I)cc1 | 11.7
Cc1noc(C)c1NC(=O)Nc1ccc2c(c1)C(=O)N([C@H](C)CO)C[C@H](C)[C@@H](CN(C)C(=O)NC(C)C)OCCCC[C@@H](C)O2 | 6.7
C[C@H](CO)N1C[C@H](C)[C@H](CN(C)C(=O)Nc2ccccc2)Oc2ccc(NC(=O)Nc3cccc4ccccc34)cc2CC1=O | 17.3
CC(=O)Nc1ccc(Br)cc1 | -14.6
COc1ccc(NC(=O)N(C)C[C@H]2Oc3ccc(NC(=O)Nc4ccc(C(F)(F)F)cc4)cc3C(=O)N([C@H](C)CO)C[C@@H]2C)cc1 | 16.4
C[C@H]1CN([C@@H](C)CO)C(=O)c2cc(NC(=O)C3CC3)ccc2O[C@@H]1CN(C)C(=O)Nc1ccccc1 | -4.2
C[C@H]1CN([C@@H](C)CO)C(=O)c2cccc(NS(=O)(=O)c3ccc(F)cc3)c2O[C@@H]1CN(C)C(=O)Nc1ccc(F)cc1 | 3.7
C[C@H]1CN([C@@H](C)CO)C(=O)Cc2cc(NC(=O)Cc3ccccc3)ccc2O[C@H]1CN(C)Cc1ccc(Oc2ccccc2)cc1 | 59.1
C[C@H](CO)N1C[C@H](C)[C@@H](CN(C)C(=O)Nc2cccc3ccccc23)Oc2ccc(NC(=O)CCC(F)(F)F)cc2C1=O | -4.1

Entries from the list above that contain an aryl thioether with sulfur outside any ring (8):
SMILES | NOMO-1 viab
CSc1nsc(SC)c1NC(=O)OCCc1ccccn1 | 13.5
CC(=O)c1ccc(NC(=O)CSc2nnc3n(-c4ccccc4)c(=O)c4c5c(sc4n23)COC(C)(C)C5)cc1 | -27.6
CCOC(=O)c1c(N)sc2c1CCC(Sc1ccccc1)C2=O (configuration not stated) | 26.0
O=C(CSc1nnc(-c2cccc3ccccc23)o1)Nc1cccc(F)c1 | -9.8
O=c1c2ccccc2nc(SCc2ccc(F)cc2)n1-c1ccccc1 | 38.0
CCCc1cc(=O)[nH]c(SCC(=O)Nc2cccc(F)c2)n1 | -1.2
O=C(CSc1nc2cc(Cl)ccc2o1)c1cccc([N+](=O)[O-])c1 | -3.0
O=C(CSc1nc2ccccc2[nH]1)Nc1ccc(I)cc1 | 11.7

(cont.)
SMILES | NOMO-1 viab
CC(C)(C)c1ccc(S(=O)(=O)N2CCN(c3ccc([N+](=O)[O-])c(NCc4cccnc4)c3)CC2)cc1 | 8.2
C[C@H]1CN([C@@H](C)CO)C(=O)c2cccc(NS(C)(=O)=O)c2O[C@@H]1CN(C)Cc1ccccc1 | -3.6
C[C@H](CO)N1C[C@H](C)[C@H](CN(C)C(=O)Nc2ccc(C(F)(F)F)cc2)Oc2ccc(NC(=O)C3CC3)cc2C1=O | 13.5
CC(C)NC(=O)N(C)C[C@H]1OCCCC[C@@H](C)Oc2ccc(NC(=O)c3ccccc3)cc2C(=O)N([C@H](C)CO)C[C@@H]1C | -11.2
COc1ccc(NC(=O)N(C)C[C@H]2Oc3c(NC(=O)c4cnccn4)cccc3C(=O)N([C@H](C)CO)C[C@H]2C)cc1 | 7.0
C[C@@H]1CCCCO[C@H](CN(C)C(=O)Nc2ccc(F)cc2)[C@@H](C)CN([C@H](C)CO)C(=O)c2cc(NC(=O)C3CCCCC3)ccc2O1 | 32.4
CCn1c(SCC(=O)Nc2ccc(F)cc2F)nnc1-c1cccs1 | 14.2
CCc1cccc(C)c1NC(=O)CSc1nnc(-c2ccccc2)n1-c1ccccc1 | 4.8
C[C@@H]1CN([C@H](C)CO)C(=O)c2cc(NS(=O)(=O)c3ccc(Cl)cc3)ccc2O[C@@H]1CN(C)Cc1ccccc1 | 87.3*
C[C@@H]1CCCCO[C@H](CN(C)C(=O)Nc2cccc3ccccc23)[C@@H](C)CN([C@H](C)CO)C(=O)c2cc(NC(=O)c3ccncc3)ccc2O1 | 3.8
COc1ccc(S(=O)(=O)Nc2cccc3c2O[C@H](CN(C)C(=O)NC2CCCCC2)[C@H](C)CN([C@H](C)CO)C3=O)cc1 | 20.4
Cc1ccc(S(=O)(=O)N(C)C[C@H]2Oc3ccc(NC(=O)Nc4ccc5c(c4)OCO5)cc3CC(=O)N([C@@H](C)CO)C[C@@H]2C)cc1 | 22.5
COc1ccc(NC(=O)Cn2nnc(-c3ccccc3Cl)n2)cc1Cl | -8.2
Cc1ccc(S(=O)(=O)N(C)C[C@@H]2Oc3c(NS(=O)(=O)c4ccc(F)cc4)cccc3C(=O)N([C@@H](C)CO)C[C@H]2C)cc1 | -8.0
O=C(CSC1CC(=O)N(c2ccc(OC(F)(F)F)cc2)C1=O)Nc1ccc(Cl)cc1 (configuration not stated) | 30.8
O=C(CSc1nnc(-c2ccccc2O)n1-c1ccccc1)N1CCN(c2ccccc2)CC1 | 21.9
Cc1cc(NC(=O)CSc2nc3ccccc3[nH]2)ccc1Cl | 44.7
C[C@H]1CN([C@@H](C)CO)C(=O)Cc2cc(NC(=O)Cc3cn(C)c4ccccc34)ccc2O[C@H]1CN(C)C(=O)Nc1ccc(F)cc1 | -4.8
Cc1ccc(S(=O)(=O)Nc2ccc3c(c2)C(=O)N([C@H](C)CO)C[C@@H](C)[C@H](CN(C)C(=O)Nc2ccc(F)cc2)O3)cc1 | 2.8
C[C@H]1CN([C@@H](C)CO)C(=O)Cc2cc(NC(=O)Cc3ccccc3)ccc2O[C@@H]1CN(C)C(=O)Nc1ccccc1 | 11.0
COc1ccc(NC(=O)N(C)C[C@@H]2Oc3c(NC(=O)Nc4ccc(C(F)(F)F)cc4)cccc3C(=O)N([C@@H](C)CO)C[C@@H]2C)cc1 | 55.6
C[C@H](CO)N1C[C@H](C)[C@H](CN(C)S(=O)(=O)c2cn(C)cn2)Oc2ccc(NC(=O)c3ccncc3)cc2CC1=O | 9.0
Cc1cccc(C)c1OCC(=O)Nc1ccccc1C(=O)NC1CCCCC1 | 14.8
C[C@H](CO)N1C[C@H](C)[C@H](CN(C)C(=O)Nc2ccc3c(c2)OCO3)Oc2c(NS(=O)(=O)c3cn(C)cn3)cccc2C1=O | 12.6
C[C@@H]1CN([C@@H](C)CO)C(=O)Cc2cc(NC(=O)Nc3ccc4c(c3)OCO4)ccc2O[C@@H]1CN(C)Cc1ccc(C(=O)Nc2ccccc2N)cc1 | 101.1*
OCCCNc1ncnc2scc(-c3ccc(Br)cc3)c12 | 32.6
Cc1ccc(S(=O)(=O)Nc2cccc3c2O[C@@H](CN(C)C(=O)NC(C)C)[C@H](C)CN([C@H](C)CO)C3=O)cc1 | -0.7
Cc1occc1C(=O)C(C#N)=C(NCc1cccnc1)NCc1cccnc1 | 25.8
C[C@H](CO)N1C[C@H](C)[C@@H](CN(C)C(=O)Nc2ccc3c(c2)OCO3)Oc2ccc(NC(=O)CCC(F)(F)F)cc2C1=O | -7.7
Cc1c(Br)c(C(F)(F)F)nn1CC(N)=O | -19.2
